# D2 PAM: positive allosteric modulators of human D2 dopamine receptor | potentiation, % (no concentration beside the values) | DiscoveRx D2 beta-arrestin cells, luminescence, 90 min; 100% = 57 uM dopamine signal | AID 624464 | actives 0.23% (n = 360,000) | P14416; active = potentiation of 50% or more; inconclusive = 30% to 50%; inactive = 30% or less;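 further: compound concentration not given in the record; tested on top of an EC20 dose of dopamine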
#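 PathHunter D2 cells, attached overnight at 37 deg C, received compound in DMSO plus dopamine at EC20 (50 nM final) for 90 min at 37 deg C. Beta-arrestin recruitment was read as luminescence after 1 h with detection reagent at ambient temperature.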
# Six1-Eya2 inh: blocks human Six1 binding to Eya2. Q15475+O00167. AlphaScreen GST-Six1/His-Eya2 binding, biochemical; hits give low values; control for the full effect not named in the record. activity change, % (no concentration beside the values). actives 0.56% (n = 360,000). AID 651725; in the data active = activity change below about -65%; inconclusive = about -30% to -65%; inactive = above about -30%; further: on the % scale 0 is the no-effect control and ±100 the full control effect; compound concentration not given in the record
# Target sequence (O00167 whole entry, looked up): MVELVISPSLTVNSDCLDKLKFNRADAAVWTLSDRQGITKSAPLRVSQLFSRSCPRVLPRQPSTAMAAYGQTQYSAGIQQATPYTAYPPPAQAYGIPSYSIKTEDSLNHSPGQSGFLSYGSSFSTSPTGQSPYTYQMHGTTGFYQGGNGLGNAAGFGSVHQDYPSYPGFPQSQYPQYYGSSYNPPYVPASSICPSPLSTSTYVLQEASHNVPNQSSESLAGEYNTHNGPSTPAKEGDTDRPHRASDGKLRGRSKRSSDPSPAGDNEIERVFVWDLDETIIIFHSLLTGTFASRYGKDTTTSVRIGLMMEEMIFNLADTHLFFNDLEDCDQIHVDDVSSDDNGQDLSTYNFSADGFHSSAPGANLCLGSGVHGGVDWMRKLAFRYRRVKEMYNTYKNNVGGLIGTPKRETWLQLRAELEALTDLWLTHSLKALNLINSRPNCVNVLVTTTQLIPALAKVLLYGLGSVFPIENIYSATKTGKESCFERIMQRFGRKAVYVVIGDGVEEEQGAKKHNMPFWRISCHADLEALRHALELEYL
# Target sequence (Q15475 whole entry, looked up): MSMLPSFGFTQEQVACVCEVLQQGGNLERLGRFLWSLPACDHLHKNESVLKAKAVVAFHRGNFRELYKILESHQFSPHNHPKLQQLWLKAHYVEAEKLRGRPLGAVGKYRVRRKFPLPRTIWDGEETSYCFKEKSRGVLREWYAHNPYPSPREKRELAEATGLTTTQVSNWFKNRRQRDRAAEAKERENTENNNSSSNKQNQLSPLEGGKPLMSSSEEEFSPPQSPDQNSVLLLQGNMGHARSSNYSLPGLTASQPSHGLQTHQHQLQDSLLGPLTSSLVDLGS
#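 GST-Six1 + His-Eya2 (5X stock: 250/500 nM); Tris pH 8.0, 300 mM NaCl, 0.05% BSA, 0.02% Tween 20; GSH donor/Ni acceptor beads; 1 h 37 °C dark; AlphaScreen readout.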
# TRPML1 ag: agonists of human TRPML1 channel; TRPML1-expressing cells, Ca2+ dye fluorescence, FDSS; host cell line not named in the record; reference of the full effect not given here; actives 0.12% (n = 410,000); AID 624414; activation, % (test concentration not listed); Q9GZU1; in the data active = activation above about 50%; inconclusive = about 30% to 50%; inactive = below about 30%; further: 0% is about no effect; the text of the record puts the active cut at 80%
#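 Tet-induced TRPML1-DL cells, 1,500 per well, cultured overnight, were loaded with a no-wash Ca2+ dye for 45–90 min. Calcium fluorescence was recorded on the FDSS for 110 s after compound addition, before the EC80 agonist (4 uM 54-4) was added.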
# PINK1 modulator: changes PINK1 expression | actives 0.2% (n = 410,000) | PINK1 immunofluorescence, high-content cytometry, 24 h | Potency, µM (doses to about 76.6 µM), for the others: at the top dose activation (PINK1 increase), most hits filed as activators; active = well fitted activation curve with a large enough effect; inconclusive = small, poorly fitted or top-dose-only effect; inactive = flat fitted curve, though single readings scatter; cell line not stated here;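 further: potency means the concentration at half of the fitted maximal effect; % of control where 0% means no effect; nearly all actives have a fitted effect of over 65% in size; a mitochondrial uncoupler was the plate control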
#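 Compound titrations (5 concentrations, 24 h) on a stable cell line; DMSO and CCCP controls. Endpoint: fixed-cell PINK1 immunofluorescence with mitochondrial, cell and nuclear markers, scanned by microplate cytometer.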
# D2 ag: activates the human D2 dopamine receptor. P14416. DiscoveRx PathHunter D2 beta-arrestin, luminescence, 90 min; 100% = 57 uM dopamine signal. activation, % (test concentration not listed). actives 0.084% (n = 360,000). AID 624465; in the data active = activation above about 40%; inconclusive = about 15% to 40%; inactive = below about 15%; further: compound concentration not given in the record; the text of the record calls up to 30% inactive
#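 DiscoveRx PathHunter D2 beta-arrestin cells (2,100/well) attached overnight, then compound-stimulated 90 min at 37 C in HBSS/10 mM HEPES/0.1% Tween-20 buffer; beta-galactosidase complementation read by luminescence after 1 h at ambient temperature. Dopamine 57 uM final (EC100) as control.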
# CtBP-E1A inh: inhibitors of CtBP/E1A interaction | AlphaScreen GST-E1A/His-CtBP binding, 1536-well; hits give low values; control for the full effect not named in the record | activity change, % (no concentration beside the values) | actives 0.49% (n = 340,000) | AID 651724; in the data active means activity change below about -65%; inconclusive means about -30% to -65%; inactive means above about -30%; further: on the % scale 0 is the no-effect control and ±100 the full control effect; compound concentration not given in the record
#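 GST-E1A and His-tagged CtBP (125 nM each as 5X stock) were preincubated with pin-transferred compound for 2 h at 37 °C in the dark, then glutathione donor and nickel acceptor beads were added for 1 h before AlphaScreen reading.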
# * marks the source's active call; other numbers are inactive results; ? = inconclusive; . = no result given; [ ] = dose if it differs, or a comment.
no.	Structure	D2 PAM	Six1-Eya2 inh	TRPML1 ag
1	O=C(c1cccc(Br)c1)N1CCN(S(=O)(=O)N2CCCCCC2)CC1	-4	7	1.5
2	Cc1cc(C)c(NC2=NCC(=O)N2C2CCCCC2)c(C)c1	1	-2	-0.4
3	Cc1ccc(-n2ncc3c2CCCC3NC(=O)CCCN2CCCCC2=O)cc1C (stereo not drawn)	10	0	0.2
4	CN(C)/N=C1\C(=O)N(CN2CCN(c3ccccc3)CC2)c2ccccc21	-10	-10	-0.1
5	CCCC(=O)Nc1ccc(S(=O)(=O)N2CCOCC2)cc1	0	4	0.3
6	CC(C)Oc1ccc(F)cc1-c1cc(C(=O)NCc2ccc(C(F)(F)F)cc2)[nH]n1	-3	6	-0.5
7	CN(C(=O)c1ccc(NC(=O)Cc2cccc(NC(=O)C3CCCN(C(=O)c4ccccc4)C3)c2)cc1)C1CC1 (stereo not drawn)	-4	3	1.5
8	c1ccc(-c2nc(NC3CCCC3)c3ccccc3n2)cc1	-13	-7	1.5
9	Cc1ccc2c(c1)N(CC(=O)NCc1ccco1)C(=O)CO2	-2	11	0.3
10	Cc1ccc(NC(=O)C2CCN(S(=O)(=O)c3cc([N+](=O)[O-])ccc3Cl)CC2)nc1	11	-12	-1.6
11	CCOC(=O)c1c(NC(=O)CNCCO)sc(C)c1C	-1	-1	1.0
12	CC(C)CNC(=O)COC(=O)c1ccc(F)cc1Cl	8	-5	-0.4

no.	PINK1 modulator	D2 ag	CtBP-E1A inh
1	-1.0%	-1.0	0
2	2.9%	-3.4	4
3	1.4%	-2.0	5
4	-1.3%	8.1	35
5	-0.5%[38.3 µM]	2.4	6
6	3.5%	5.1	-23
7	-0.5%	-1.6	4
8	9.2%	0.2	9
9	-1.3%	-1.2	4
10	0.2%	6.2	.
11	-1.8%	0.9	-16
12	-1.7%	-3.0	1

# (listing goes on)
no.	Structure	D2 PAM	Six1-Eya2 inh	TRPML1 ag
13	C=CCn1c(C)cc(C2=NNC(=NC(C)(C)C)SC2)c1C	-17	-10	0.0
14	CCOC(=O)N1CCN(C(=O)COc2ccccc2OC)CC1	0	0	-0.2
15	CC1CCCC(n2cnc3cc(C(=O)O)ccc32)C1C (stereo not drawn)	-9	-3	.
16	O=C(CCNC(=O)c1ccc([N+](=O)[O-])cc1)NC1CCCc2ccccc21 (stereo not drawn)	4	5	-1.0
17	COC(=O)CN1C(=S)N(c2ccc(OC)cc2)C(=O)C1CC(=O)Nc1ccc(F)cc1 (stereo not drawn)	-18	4	-0.5
18	CC(=O)Oc1ccc2ccccc2c1C(NC(=O)C(C)C)c1cccc([N+](=O)[O-])c1 (stereo not drawn)	-6	-3	0.5
19	O=C(Nc1nc(-c2ccccn2)cs1)c1cccc(-n2cnnn2)c1	-15	-92*	-0.8
20	CCC1CCCCN1C(=O)CSc1nnc(-c2ccc(OC)cc2)o1 (stereo not drawn)	0	2	0.0
21	Cc1ccc(OCC(=O)Nc2cc(S(=O)(=O)N3CCOCC3)ccc2Cl)c([N+](=O)[O-])n1	-2	4	1.1
22	Cc1ncc(N=Nc2ccccc2)c(-c2ccccc2)n1	-5	?	0.4
23	Cc1cc(C)nc(Nc2cccc3ccccc23)n1	3	0	.
24	CCC(C)(C)NC(=O)C(c1ccc(F)cc1)N(Cc1ccco1)C(=O)c1cnccn1 (stereo not drawn)	-8	20	-0.3

no.	PINK1 modulator	D2 ag	CtBP-E1A inh
13	?	-2.1	-18
14	-2.4%[38.3 µM]	-2.2	1
15	0.5%	-1.5	-4
16	0.9%	0.0	0
17	0.8%	-9.8	-1
18	.	-5.6	6
19	1.3%	-2.6	.
20	-0.9%	-5.5	-3
21	13%	2.0	2
22	17%	-5.1	?
23	1.7%	0.8	.
24	.	-0.7	43

# Taken from the results shown for reference:
no.	Structure	D2 PAM	Six1-Eya2 inh	TRPML1 ag
12	CC(C)CNC(=O)COC(=O)c1ccc(F)cc1Cl	8	-5	-0.4
13	C=CCn1c(C)cc(C2=NNC(=NC(C)(C)C)SC2)c1C	-17	-10	0.0
14	CCOC(=O)N1CCN(C(=O)COc2ccccc2OC)CC1	0	0	-0.2
15	CC1CCCC(n2cnc3cc(C(=O)O)ccc32)C1C (stereo not drawn)	-9	-3	.
16	O=C(CCNC(=O)c1ccc([N+](=O)[O-])cc1)NC1CCCc2ccccc21 (stereo not drawn)	4	5	-1.0
17	COC(=O)CN1C(=S)N(c2ccc(OC)cc2)C(=O)C1CC(=O)Nc1ccc(F)cc1 (stereo not drawn)	-18	4	-0.5
18	CC(=O)Oc1ccc2ccccc2c1C(NC(=O)C(C)C)c1cccc([N+](=O)[O-])c1 (stereo not drawn)	-6	-3	0.5
19	O=C(Nc1nc(-c2ccccn2)cs1)c1cccc(-n2cnnn2)c1	-15	-92*	-0.8
20	CCC1CCCCN1C(=O)CSc1nnc(-c2ccc(OC)cc2)o1 (stereo not drawn)	0	2	0.0
21	Cc1ccc(OCC(=O)Nc2cc(S(=O)(=O)N3CCOCC3)ccc2Cl)c([N+](=O)[O-])n1	-2	4	1.1
22	Cc1ncc(N=Nc2ccccc2)c(-c2ccccc2)n1	-5	?	0.4
23	Cc1cc(C)nc(Nc2cccc3ccccc23)n1	3	0	.
24	CCC(C)(C)NC(=O)C(c1ccc(F)cc1)N(Cc1ccco1)C(=O)c1cnccn1 (stereo not drawn)	-8	20	-0.3

no.	PINK1 modulator	D2 ag	CtBP-E1A inh
12	-1.7%	-3.0	1
13	?	-2.1	-18
14	-2.4%[38.3 µM]	-2.2	1
15	0.5%	-1.5	-4
16	0.9%	0.0	0
17	0.8%	-9.8	-1
18	.	-5.6	6
19	1.3%	-2.6	.
20	-0.9%	-5.5	-3
21	13%	2.0	2
22	17%	-5.1	?
23	1.7%	0.8	.
24	.	-0.7	43

# Remaining list, next part
no.	Structure	D2 PAM	Six1-Eya2 inh	TRPML1 ag
25	O=C(Nc1ccc(OC(F)F)cc1)c1cc[n+]([O-])cc1	-2	6	-0.1
26	CC1N(C)c2cc(NC(=O)c3ccco3)c(P(=O)(Nc3ccc([N+](=O)[O-])cc3)N3CCOCC3)cc2C1(C)C (stereo not drawn)	-9	-28	1.5
27	CC(C)(O)c1[nH]c2cc(C(F)(F)F)ccc2c1C(C)(C)O	-5	4	0.5
28	C=CCOc1ccc(/C=C2\SC(N)=NC2=O)cc1OC	-9	-1	0.5
29	COc1ccc(C(=O)Nc2ccc(O)c3ccccc23)cc1OC	82*	-26	0.0
30	COC(=O)c1ccc(CN2CCC(Oc3cccc(C(=O)N4CCOCC4)c3)CC2)cc1	-23	-4	0.8
31	S=C(c1ccc(Br)cc1)N1CCCC1	-8	-8	-1.3
32	O=S(=O)(Nc1ccc2nc(-c3ccco3)[nH]c2c1)c1ccccc1	9	?	-0.8
33	CCOC(=O)C1CCN(C(=O)c2cccc(NC(=O)C(CC)CC)c2)CC1	1	3	-0.1
34	CC(C)(C)OC(=O)CNC(=O)c1nc[nH]c1C(=O)N1CCN(C(=O)OC(C)(C)C)CC1	-4	3	0.0
35	COC(=O)c1ccc(COC(=O)c2ccc(-n3cnnn3)cc2)o1	-2	0	-0.3
36	CC(=O)c1c(C)[nH]c(C(=O)Nc2ccc(N3CCCCCC3)cc2)c1C	3	?	0.2

no.	PINK1 modulator	D2 ag	CtBP-E1A inh
25	5.8%	-0.8	-1
26	-0.9%	-0.7	-7
27	3.3%	0.1	5
28	-0.3%	0.6	?
29	5.6%	?	-16
30	-1.2%	-3.0	-2
31	3.6%	-2.3	3
32	3.0%	-0.3	-18
33	-1.2%[38.3 µM]	-1.7	4
34	1.2%	-2.0	7
35	4.1%	-1.2	8
36	2.5%	0.6	-27

# (more compounds)
no.	Structure	D2 PAM	Six1-Eya2 inh	TRPML1 ag
37	COc1ccccc1NC(=O)COC(=O)C1CC1	0	7	0.0
38	COc1ccc(N2C(=O)N[C@@H](Cc3ccccc3)C2=O)cc1OC	-5	-2	0.2
39	O=C1CC(c2cccnc2)c2cc3c(cc2N1)OCO3 (stereo not drawn)	-1	-6	-0.5
40	CCCNC(=O)c1onc(CS(=O)(=O)c2cccc(OC)c2)c1C(=O)NCCC	0	-2	0.3
41	CN(C)CCCOc1cccc(Oc2ccccc2)c1	-28	-4	-0.5
42	CCOC(=O)NN1C(=O)c2ccccc2NC1c1ccc(N(C)C)cc1 (stereo not drawn)	-8	0	-0.5
43	Cc1ccccc1C(=O)NC(=S)Nc1ccc(Oc2ccc(Cl)cc2)cc1	-10	5	0.0
44	CNc1nc(Sc2ccc(C)cc2)cc(C(F)(F)F)n1	-15	26	0.7
45	O=C1C(=Cc2ccccc2Cl)CCc2ccccc21	-9	-1	1.3
46	O=C(NCCc1ccc(Cl)cc1)c1ccc2nc(N3CCOCC3)sc2c1	-4	3	-1.4
47	OC(C#CCN1CCCC1)(c1ccccc1)c1cccc(F)c1 (stereo not drawn)	-35	9	0.5
48	CSC[C@H]1CN(Cc2cccnc2)C(=O)[C@@H]1CC(=O)Nc1ccc(Br)cc1	-6	8	-0.5

no.	PINK1 modulator	D2 ag	CtBP-E1A inh
37	-0.7%	5.0	6
38	1.5%	-1.3	.
39	1.8%	-0.5	3
40	1.2%	1.6	.
41	-1.9%	-3.0	-5
42	-1.7%	-5.0	-2
43	5.6%	-4.6	13
44	-36%[inhibitor][38.3 µM]	-3.1	27
45	1.7%	-8.4	-14
46	4.8%	-6.6	6
47	-1.3%	-1.6	4
48	-1.0%	-1.5	0

# (continued)
no.	Structure	D2 PAM	Six1-Eya2 inh	TRPML1 ag
49	COC(=O)c1ccc(C)c(NC(=O)CCc2cc(OC)c(OC)c(OC)c2)c1	-4	-1	-0.8
50	O=S(=O)(c1c(F)cccc1F)N1CCCC2CCCCC21 (stereo not drawn)	-15	18	1.3
51	O=C(NCc1cccnc1)c1ccccc1NS(=O)(=O)c1ccccc1	-18	7	0.1
52	Cc1nc(NCC(c2ccccc2)N(C)C)c2c(C)c(C)sc2n1 (stereo not drawn)	-17	-4	0.3
53	CN(CCCCCCCCCCN(C)C(=O)Oc1cccc([N+](C)(C)C)c1)C(=O)Oc1cccc([N+](C)(C)C)c1	8	-4	-1.1
54	Cc1nnc(N=c2ssnc2Cl)o1	-6	-2	2.0
55	CCSCCOC(=O)C1=C(C)NC(=O)NC1c1ccccc1 (stereo not drawn)	-13	1	-1.0
56	CC(C)(C)c1csc(NNC(=O)c2ccc(Cl)cc2)n1	-2	23	-0.4

no.	PINK1 modulator	D2 ag	CtBP-E1A inh
49	0.2%	-1.9	-2
50	-0.2%	-0.6	-3
51	3.5%	-1.2	4
52	3.1%	-0.2	-6
53	1.2%	-4.9	-4
54	?	-5.8	-22
55	0.2%	-4.0	-2
56	0.5%	-6.5	-21

# Bioassay records as filed in PubChem BioAssay.
